GIV Gai3 FP = inhibitors of GIV GBA-motif binding to rat Galpha-i3. P08753. 210,000 compounds, 0.42% hits. percent of control (FP), % (test concentration not listed). Galpha-i3/FITC-GIV peptide fluorescence polarization, 90 min; hits give low values; scaled: aluminum fluoride 0%, vehicle 100%;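 active = replicate mean at 85% of control or lower, very high polarization wells dropped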;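 also: wells of about 15 µL received 100 nL stock; the first replicate is given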
Target sequence (P08753 whole entry, looked up): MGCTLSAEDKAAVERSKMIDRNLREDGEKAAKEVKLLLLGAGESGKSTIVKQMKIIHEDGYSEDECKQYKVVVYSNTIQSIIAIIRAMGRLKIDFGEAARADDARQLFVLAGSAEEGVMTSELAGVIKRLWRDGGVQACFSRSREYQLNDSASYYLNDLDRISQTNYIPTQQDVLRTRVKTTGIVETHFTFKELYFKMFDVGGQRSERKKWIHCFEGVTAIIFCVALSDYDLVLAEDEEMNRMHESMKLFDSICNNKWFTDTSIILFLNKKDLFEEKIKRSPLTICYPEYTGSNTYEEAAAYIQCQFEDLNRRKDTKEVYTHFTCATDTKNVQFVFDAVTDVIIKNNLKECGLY
HCMV NEC inh = cytomegalovirus nuclear egress complex inhibition; HTRF UL50-UL53 interaction, normalized percent inhibition; inhibition, % (test concentration not listed); 190,000 compounds, 0.15% hits; AID 1918969;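 active = both replicates at 50% or more, plus weaker picks with an unusually low signal ratio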;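 also: stock transfer was 100 nL into about 20 µL; 0% = negative control wells and 100% = wells with untagged competitor protein; inactives centre near -12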
Sa growth inh = blocks Staphylococcus aureus growth; AID 720641; S. aureus RN4220 growth, OD600, 20 h, 42 °C; hits give low values; 170,000 compounds, 0.53% hits; relative growth, % (test concentration not listed);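 active = growth at 42 °C up to 50% and 20 or more points under that at 30 °C, or under 10% at both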;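 also: 300 nL library stock went into each well; scaled to the means of positive and negative controls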
Sa growth inh second temp = recorded beside Sa growth inh, whose call it bears; relative growth, %; measured here: growth at 30 °C;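 optical density after 20 h as mean of two plates; 100% = untreated growth and lower means inhibition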
Numbers without * were called inactive; x = not tested or not shown.

SMILES | GIV Gai3 FP | HCMV NEC inh | Sa growth inh | Sa growth inh second temp
COc1ccc(CN2C(=O)c3cccnc3C2=O)cc1S(=O)(=O)N1CCN(c2ccccc2)CC1 | 94 | -10 | x | x
CNC(=O)c1nnc(-c2ccccc2)o1 | 105 | x | 117 | 87
COc1ccc(OC)c(CNC(=O)c2cc3c(=O)oc4ccc(C)cc4c3s2)c1 | 103 | -35 | 94 | 89
Cc1nc2sc(C(c3ccco3)N3CCN(C(=O)c4ccco4)CC3)c(O)n2n1 (stereo unspecified) | 90 | -8 | 93 | 98
COc1ccccc1CCNC(=O)C(=O)NCC(c1ccc2c(c1)OCO2)N1CCOCC1 (stereo unspecified) | 93 | x | 139 | 89
CN1C(C(=O)NC2CCCCC2)=CC(c2ccc(F)cc2)=NS1(=O)=O | 95 | -55 | 84 | 92
COc1ccc(-c2[nH]c(-c3ccc(OC)c(OC)c3)nc2SCC(=O)Nc2ccccc2)cc1 | 104 | 8 | 106 | 67
Cc1ccc2c(c1)-c1c(ssc1=S)C(C)(C)N2C(=O)CN1CCOCC1 | 105 | -98 | 90 | 85
Cc1ccc(N2CCN(S(=O)(=O)c3cc(C(=O)Nc4cc(Cl)cc(Cl)c4)ccc3F)CC2C)cc1 (stereo unspecified) | 100 | x | 86 | 85
CN1CCc2c(sc3c2CN(C(=O)NC2CCCCC2)C(c2ccccc2)c2cccn2-3)C1 (stereo unspecified) | 115 | 0 | x | x
COc1ccc(C2=NN(CC(=O)NCCCN(C)c3ccccc3)C(=O)CC2)cc1 | 104 | x | 114 | 96
CCC(=O)N(CCN1C(=O)c2ccccc2C1=O)c1cccc(F)c1 | x | -52 | 104 | 94
COC(=O)c1cc(NC(=O)Nc2ccc3snnc3c2)cc(C(=O)OC)c1 | 107 | -12 | 112 | 75
O=C1CCc2cc(S(=O)(=O)NC(Cc3ccccc3)C(=O)N3CCN(c4ccccn4)CC3)ccc2N1 (stereo unspecified) | 100 | -28 | x | x
Cc1cc(OCC(=O)Nc2ccc3c(c2)C(=O)c2ccccc2C3=O)cc(C)c1Cl | 102 | -1 | x | x
OCC1Cc2ccccc2CN1 (stereo unspecified) | 96 | -8 | 95 | 90
Cc1[nH]c(-c2ccc(F)cc2)cc1C(=O)N(C)Cc1ccco1 | 99 | x | 59 | 64
O=C(OCCOc1ccc(Br)cc1)c1ccc(Cl)nc1 | x | -13 | 73 | 84
O=S(=O)(c1ccc(Br)s1)N1CCCCC1 | 107 | -11 | x | x
COCCCNC(=O)C1CCN(c2ncnc3c2nc2n3CCCCC2)CC1 | 100 | x | 105 | 95
O=c1cc(CN2CCN(CCO)CC2)nc2nc(NCc3ccc(Cl)cc3)[nH]n12 | 103 | -20 | x | x
O=C(CNC(=O)c1ccccc1)OCc1c(Cl)cccc1Cl | x | -4 | 90 | 100
Nc1nc(=S)[nH]c2c1C1(CCCC1)Cc1ccccc1-2 | 100 | -1 | 83 | 105
Cc1nn(-c2ccc(F)cc2)c(-n2cccc2)c1C(=O)NCCN1CCOCC1 | 102 | 4 | 95 | 99
O=C(O)c1cccc(N=NN2CCOCC2)c1 | 106 | -58 | 94 | 92
Brc1cccc(CSc2nccn3nc(-c4ccccc4)cc23)c1 | 108 | -15 | x | x
CC(C)NC(=O)c1nnc(Cc2cccc(Cl)c2)o1 | 105 | x | 77 | 82
Cc1cccc(-c2nc(CCNC(=O)Cc3ccc(F)cc3)cs2)c1 | 99 | x | 86 | 88
Cc1cc(C=C2C(=O)c3ccccc3C2=O)c(C)n1C | 108 | -58 | 104 | 95
CCN1CCN(c2nc3ncn(CC(N)=O)c(=O)c3s2)CC1 | 102 | -25 | x | x

2 compounds drawn at random from the list so far:
SMILES | GIV Gai3 FP | HCMV NEC inh | Sa growth inh | Sa growth inh second temp
Cc1[nH]c(-c2ccc(F)cc2)cc1C(=O)N(C)Cc1ccco1 | 99 | x | 59 | 64
COCCCNC(=O)C1CCN(c2ncnc3c2nc2n3CCCCC2)CC1 | 100 | x | 105 | 95

Going on with the list.
SMILES | GIV Gai3 FP | HCMV NEC inh | Sa growth inh | Sa growth inh second temp
O=C1N(Cc2ccccc2)C(c2ccco2)C1(F)F (stereo unspecified) | x | -7 | 90 | 100
CCN(CC)C(=O)c1sc2c(c1C)c(=O)n(-c1ccccc1)c(=O)n2CC(=O)N(CC)c1cccc(C)c1 | 100 | x | 93 | 88
CCCCN(C)S(=O)(=O)c1ccc2c(c1)oc(=O)n2C | 111 | x | 78 | 90
Cc1nn(-c2ccccc2)c2sc(C(=O)OC3CCCC3=O)cc12 (stereo unspecified) | x | -12 | 81 | 79
Cc1cc(NC(=O)COCc2cc(-c3ccc(F)cc3)on2)ccc1Br | 102 | x | 87 | 87
Cc1nnc(SCC(=O)Nc2nc(-c3ccc(Br)cc3)cs2)[nH]c1=O | 101 | -3 | 97 | 89
Oc1cccc2cnccc12 | 101 | -15 | 79 | 92
CCOC(=O)c1sc(NS(=O)(=O)c2ccccc2C(F)(F)F)cc1C | x | -10 | 84 | 56
CCOc1ccc(NC(=O)CCC(=O)N2CC(C)Oc3ccc(C)cc32)cc1 (stereo unspecified) | 99 | -7 | 94 | 90
COc1ccc(-c2nc(C)c(CCNS(=O)(=O)N(C)C)s2)cc1 | 104 | x | 123 | 81
Cc1ccccc1Nc1nnc(-c2ccc(C)c(S(=O)(=O)NCC3CCCO3)c2)c2ccccc12 (stereo unspecified) | 106 | -47 | 106 | 74
CCc1ccccc1-n1nnnc1-c1cnccc1C(F)(F)F | 108 | -1 | 130 | 99
CC(=O)Nc1ccc(SC(F)(F)F)cc1 | x | 13 | 69 | 90
O=C(O)c1sc(Nc2ccccc2)nc1-c1ccccc1 | 109 | 3 | 98 | 103
CCC(=O)Nc1ccc(Cl)c(NC(=O)c2cc3ccccc3o2)c1 | 97 | -7 | 86 | 77
CCc1nnc2c3ccccc3nc(NCc3cccnc3)n12 | 102 | -15 | 108 | 94
CCOc1ccc(S(=O)(=O)N(CC(=O)NCCSCc2ccc(C)cc2)c2ccccc2)cc1 | 99 | -33 | 95 | 81
CCCCNC(=O)c1cc2cc(OCC)ccc2n1C | 102 | -3 | x | x
COc1ccc(/C=C/C(=O)Nc2cc(-c3nc4ccccc4o3)ccc2OC)cc1 | 106 | -2 | 98 | 97
Cc1ccccc1NC(=O)Cn1c(=O)n(-c2ccc(CC(=O)NCC3CCCO3)cc2)c(=O)c2ccccc21 (stereo unspecified) | 103 | -5 | 102 | 84
COc1ccc(Nc2c(C(=O)N3CCCCC3)cnc3ccc(F)cc23)c(OC)c1 | 104 | -4 | x | x
CC(C)NC(=O)Oc1noc2ccccc12 | 111 | 6 | 99 | 97
CCc1ccccc1NC(=O)CCc1c(C)nn(-c2ccc(N3CCOCC3)nn2)c1C | 99 | x | 86 | 99
CCc1ccc(NC(=O)N2CCC(CN3CCc4ccccc4C3)CC2)cc1 | 97 | 3 | 113 | 110
Cc1ccc(NC(=O)C2COc3ccccc3O2)c(C)c1 (stereo unspecified) | 103 | -20 | x | x
CCn1c(C)c(C)c2cc(C(=O)NCc3cccc(C)c3)ccc21 | 102 | x | 94 | 91
CCc1ccccc1NC(=O)c1cc2c(Cl)nc3ccccc3c2s1 | 106 | -4 | 100 | 88
C=CC1CCC(N(Cc2ccccc2)S(=O)(=O)c2ccc(C)cc2)C(O)C1 (stereo unspecified) | 105 | x | 100 | 85
CC(C)Cc1cc(C(=O)NC(C)C)no1 | 98 | -6 | 86 | 89
Cc1cc(C)nc(Nc2ccc(Nc3ccccc3)cc2)n1 | 114 | -9 | 116 | 98
O=C1/C(=C/c2ccc(O)cc2)NC(=S)N1c1ccccc1 | 152 | -88 | 92 | 55
CC1CCc2noc(NC(=O)c3ccccc3Br)c2C1 (stereo unspecified) | 104 | -24 | x | x
O=C(Nc1cccc(-c2cn3ccccc3n2)c1)c1ccc(Cl)cc1 | 95 | -17 | x | x
O=C(NC1CCCC1)c1c2c(nc3ccccc13)C(=O)N(C1CCCCC1)C2 | 103 | -49 | x | x
N#CCCN1C(=O)NC(Cc2ccccc2)(c2ccccc2)C1=O (stereo unspecified) | x | -41 | 88 | 89
CCC(CC)C(=O)OCc1cc(=O)n2nc(C)sc2n1 | 103 | 7 | x | x
O=C(CNC(=O)OCc1ccccc1)NC1CCCCCC1 | 105 | 1 | 95 | 84
CC(C)CCN1NC2(CCCC(C)C2)NC1=S (stereo unspecified) | 100 | -27 | 86 | 86
CCC12CN3CC(CC)(CN(C1)C3c1cc(Br)ccc1O)C2O (stereo unspecified) | 101 | -15 | x | x
Cc1cc(=O)[nH]c(-n2nc(C)cc2NC(=O)c2ccc(Cl)cc2)n1 | 103 | 4 | x | x
COc1ccccc1NC(=O)c1ncoc1-c1ccco1 | 100 | x | 87 | 91
O=C(c1ccc2c(c1)N(Cc1ccc(Cl)cc1)C(=O)c1ccccc1S2=O)N1CCOCC1 (stereo unspecified) | 102 | -16 | 101 | 83
Nc1nc(C2CC2)c(Sc2sc(N)nc2C2CC2)s1 | 98 | -8 | 97 | 92
COc1cc(CN2CCN(c3ncccn3)CC2)ccc1O | 96 | -13 | 90 | 72
COc1ccccc1C(=O)Nc1ccc(C(=O)OCc2cc(=O)n3nc(C)sc3n2)cc1 | 104 | x | 95 | 100
O=C(NCC1COc2ccccc2O1)c1cccc(S(=O)(=O)N2CCOCC2)c1 (stereo unspecified) | x | -29 | 102 | 97
CC(C)(C)OC(=O)Nc1cccc(C(=O)OCC(=O)Nc2ccc(N3CCOCC3)cc2)c1 | x | -5 | 105 | 88

An excerpt from above in order of heavy-atom count, descending:
SMILES | GIV Gai3 FP | HCMV NEC inh | Sa growth inh | Sa growth inh second temp
Cc1ccccc1NC(=O)Cn1c(=O)n(-c2ccc(CC(=O)NCC3CCCO3)cc2)c(=O)c2ccccc21 (stereo unspecified) | 103 | -5 | 102 | 84
CCN(CC)C(=O)c1sc2c(c1C)c(=O)n(-c1ccccc1)c(=O)n2CC(=O)N(CC)c1cccc(C)c1 | 100 | x | 93 | 88
O=C1CCc2cc(S(=O)(=O)NC(Cc3ccccc3)C(=O)N3CCN(c4ccccn4)CC3)ccc2N1 (stereo unspecified) | 100 | -28 | x | x
COc1ccc(CN2C(=O)c3cccnc3C2=O)cc1S(=O)(=O)N1CCN(c2ccccc2)CC1 | 94 | -10 | x | x
COc1ccc(-c2[nH]c(-c3ccc(OC)c(OC)c3)nc2SCC(=O)Nc2ccccc2)cc1 | 104 | 8 | 106 | 67
COc1ccccc1CCNC(=O)C(=O)NCC(c1ccc2c(c1)OCO2)N1CCOCC1 (stereo unspecified) | 93 | x | 139 | 89
CCc1ccccc1NC(=O)CCc1c(C)nn(-c2ccc(N3CCOCC3)nn2)c1C | 99 | x | 86 | 99
Cc1cc(OCC(=O)Nc2ccc3c(c2)C(=O)c2ccccc2C3=O)cc(C)c1Cl | 102 | -1 | x | x
Cc1nc2sc(C(c3ccco3)N3CCN(C(=O)c4ccco4)CC3)c(O)n2n1 (stereo unspecified) | 90 | -8 | 93 | 98
CCOc1ccc(NC(=O)CCC(=O)N2CC(C)Oc3ccc(C)cc32)cc1 (stereo unspecified) | 99 | -7 | 94 | 90
C=CC1CCC(N(Cc2ccccc2)S(=O)(=O)c2ccc(C)cc2)C(O)C1 (stereo unspecified) | 105 | x | 100 | 85
Cc1ccc2c(c1)-c1c(ssc1=S)C(C)(C)N2C(=O)CN1CCOCC1 | 105 | -98 | 90 | 85
CCOC(=O)c1sc(NS(=O)(=O)c2ccccc2C(F)(F)F)cc1C | x | -10 | 84 | 56
Cc1cc(=O)[nH]c(-n2nc(C)cc2NC(=O)c2ccc(Cl)cc2)n1 | 103 | 4 | x | x
CCc1nnc2c3ccccc3nc(NCc3cccnc3)n12 | 102 | -15 | 108 | 94
Cc1cc(C)nc(Nc2ccc(Nc3ccccc3)cc2)n1 | 114 | -9 | 116 | 98
O=C1/C(=C/c2ccc(O)cc2)NC(=S)N1c1ccccc1 | 152 | -88 | 92 | 55
CCCCN(C)S(=O)(=O)c1ccc2c(c1)oc(=O)n2C | 111 | x | 78 | 90
CC(C)NC(=O)c1nnc(Cc2cccc(Cl)c2)o1 | 105 | x | 77 | 82
O=C(O)c1cccc(N=NN2CCOCC2)c1 | 106 | -58 | 94 | 92
CC(C)NC(=O)Oc1noc2ccccc12 | 111 | 6 | 99 | 97
CNC(=O)c1nnc(-c2ccccc2)o1 | 105 | x | 117 | 87
OCC1Cc2ccccc2CN1 (stereo unspecified) | 96 | -8 | 95 | 90
Oc1cccc2cnccc12 | 101 | -15 | 79 | 92

Screening results (PubChem BioAssay)
